SARS PLpro yeast – qHTS of Yeast-based Assay for SARS-CoV PLP; 330,000 compounds, 0.19% hits; Potency, µM (doses to about 32.9 µM), for inactives: at the top dose activity, positive = growth rescue; AID 485353, 2010; S. cerevisiae expressing SARS-CoV PLpro, growth rescue; control for the full effect not named in the record; active means well fitted rising curve with a large enough effect; inconclusive means small, poorly fitted or top-dose-only effect; inactive means no such curve, though single readings can be large or run the other way; also: 0% is about no effect; nearly all actives have a fitted effect of over 55% in size; growth read by luminescence after 48 h
Cruzain inh Det – qHTS Assay for Promiscuous and Specific Inhibitors of Cruzain (with detergent); Potency, µM, inactives show max response, negative = inhibition, usual class: inhibitors; purified cruzain, Z-FR-AMC fluorescence, 0.01% Triton; 200,000 compounds, 0.43% hits;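 also: plate controls were neutral wells for no effect and buffer without enzyme for full effect; nearly all actives have a fitted effect of over 40% in size; top concentration of the series not given in the record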
Target sequence (P25779 123-467 limits assumed): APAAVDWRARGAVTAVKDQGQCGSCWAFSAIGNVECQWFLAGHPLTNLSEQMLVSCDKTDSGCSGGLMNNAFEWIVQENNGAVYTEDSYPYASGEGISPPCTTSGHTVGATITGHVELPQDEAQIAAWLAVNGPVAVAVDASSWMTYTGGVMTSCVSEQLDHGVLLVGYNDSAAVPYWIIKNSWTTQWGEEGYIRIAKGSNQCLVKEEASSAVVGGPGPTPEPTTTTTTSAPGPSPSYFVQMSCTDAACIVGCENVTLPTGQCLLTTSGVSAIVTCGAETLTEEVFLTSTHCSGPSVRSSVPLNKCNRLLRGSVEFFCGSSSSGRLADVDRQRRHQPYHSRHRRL
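Steps: dispense cruzain (1.5 nM final) in acetate buffer pH 5.5 with DTT and 0.01% Triton X-100; pin-transfer compounds; incubate 15 min RT; add Z-FR-AMC (2 uM final); read fluorescence every 30 s, using the 60 s intensity change.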
Cruzain noTriton – qHTS Assay for Promiscuous and Specific Inhibitors of Cruzain (without detergent); purified cruzain, Z-FR-AMC fluorescence, no detergent; Cruzipain (Trypanosoma cruzi), P25779; Potency, µM, inactives show max response, negative = inhibition, hits mostly inhibitors; AID 1476, 2009; 200,000 compounds, 2.3% hits;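 also: plate controls were enzyme without inhibitor for no effect and buffer without enzyme for full effect; nearly all actives have a fitted effect of over 40% in size; top concentration of the series not given in the record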
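Purified cruzain at 1.5 nM, pre-incubated 15 min with compound at room temperature in 100 mM sodium acetate pH 5.5, 5 mM DTT, 0.00005% Triton X-100. Reaction started with 2 uM Z-FR-AMC; AMC fluorescence increase over 60 s gives rate.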
LASV entry inh – qHTS for Inhibitors of binding or entry into cells for Lassa Virus. 300,000 compounds, 1.2% hits. AID 540256, 2011. Lassa virus pseudotype entry inhibition, cell reporter; control for the full effect not named in the record. Potency, µM (highest dose often 37.9 µM), without a hit: top-dose activity change, negative = inhibition, most hits filed as inhibitors; active means well fitted inhibition curve with a large enough effect; inconclusive means small, poorly fitted or top-dose-only effect, or effect the other way; inactive means flat fitted curve, though single readings scatter; tested in HEK293 cells; also: % is scaled to controls: 0 for no effect and ±100 for the full control effect; nearly all actives have a fitted effect of over 50% in size; luciferase read-out
2A StopGo – High Throughput Screening for Foot and Mouth Disease Virus Antivirals; human cells with a luciferase reporter of 2A StopGo recoding; control for the full effect not named in the record; Potency, µM (series often up to 57.9 µM), inactives show at the highest dose signal change, negative = less light; 410,000 compounds, 1.2% hits; active = well fitted falling curve with a large enough effect; inconclusive = small, poorly fitted or top-dose-only effect; inactive = no such curve, though single readings can be large or run the other way; tested in HEK293T cells; also: % is scaled to controls: 0 for no effect and ±100 for the full control effect; nearly all actives have a fitted effect of over 45% in size; luciferase light after 4 h
NS1 function inh – qHTS Assay for Inhibitors of Influenza NS1 Protein Function. S. cerevisiae slowed by influenza A NS1, growth recovery by OD600. Potency, µM (titrated, usually from 46.1 µM), for the others: at the highest dose activity, positive = more growth. 270,000 compounds, 0.4% hits; active means well fitted rising curve with a large enough effect; inconclusive means small, poorly fitted or top-dose-only effect; inactive means no such curve, though single readings can be large or run the other way; also: nearly all actives have a fitted effect of over 50% in size
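Recovery from NS1-induced slow growth read by OD600 in budding yeast switched to galactose assay medium (pH 6.0, -URA) at 1:100 dilution. Compound 23 nl per well; the matching strain lacking NS1 serves as control.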
Marburg entry inh – qHTS for inhibitors of binding or entry into cells for Marburg Virus; Marburg virus pseudotyped entry inhibition, cell reporter; control for the full effect not named in the record; about a third of the inactives were read at about 46 µM; Potency, µM (highest dose often 37.8 µM), without a hit: top-dose activity change, negative = inhibition, most hits filed as inhibitors; 300,000 compounds, 1.8% hits; AID 540276, 2011; active = well fitted inhibition curve with a large enough effect; inconclusive = small, poorly fitted or top-dose-only effect, or effect the other way; inactive = flat fitted curve, though single readings scatter; tested in HEK293 cells; about a fifth of its hits are not listed in these tables; also: % is scaled to controls: 0 for no effect and ±100 for the full control effect; luciferase read-out
RE007 growth inh – qHTS Assay for Inhibitors of the HIV-1 protein Vpr; S. pombe RE007 Vpr strain, BacTiter-Glo ATP luminescence, 24 h; control for the full effect not named in the record; Potency, µM (titrated, usually from 92.2 µM), without a hit: at the top dose activity change, negative = less growth; 360,000 compounds, 0.21% hits; active = well fitted falling curve with a large enough effect; inconclusive = small, poorly fitted or top-dose-only effect; inactive = no such curve, though single readings can be large or run the other way;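 also: % is scaled to controls: 0 for no effect and ±100 for the full control effect; nearly all actives have a fitted effect of over 50% in size; the assay follows cell death caused by Vpr and the record does not say whether a fall means rescue or toxicity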
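Fission yeast RE007 carrying one integrated HIV-1 vpr copy, seeded at OD 0.01 in PMG+AL medium with 23 nL pinned compound. Grown 24 h at 30 degrees; viability read by BacTiter-Glo luminescence after 5 min.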
The depositor's hits bear a star; ? = inconclusive; . = no result given; [ ] = another dose, or the depositor's remark. Unless noted, calls follow the shape of the dose curve; as a rule, active = well fitted curve in the direction sought with a large enough effect; inconclusive = small, poorly fitted or top-dose-only effect, or another doubt; inactive = no such curve, though single readings can be large; an effect the other way counts as inactive or inconclusive. Potency is read from the fitted curve at half-maximal effect.

molecule | NS1 function inh | Cruzain inh Det | RE007 growth inh | 2A StopGo | SARS PLpro yeast | Cruzain noTriton | Marburg entry inh | LASV entry inh
OC(c1ccc2c(c1)OCO2)c1nccc2ccccc12 (stereo not drawn) | -4.3% | -1.8% | -6.5% | . | 10.0% | -2.5% | 7.9% | 2.3%
C=CCOC(=O)c1sc(NC(=O)c2ccco2)nc1C | -28.8% | 0.5% | ? | 39.1%[activator] | -3.1% | -24.5% | -27.8% | ?
Cc1ccc(COn2c(-c3ccc(Cl)cc3Cl)nc3ncccc32)cc1 | -82.8% | 8.3% | ? | -22.6% | -28.4% | 19.1% | ? | ?
O=C(/C=C\c1ccccc1)NCC(=O)N/N=C/c1ccc(O)cc1O | -3.6% | . | 2.6% | 6.1% | -0.3% | . | -26.2%[46.1 µM] | ?
COc1cc(OC)cc(C(=O)Nc2ccn(C)n2)c1 | . | . | 0.1% | -13.3% | -4.0% | . | ? | 10.2%
Cc1nnc(N/N=C/c2ccc([N+](=O)[O-])cc2)n1N | . | . | 16.3% | 2.3% | -5.6% | . | 16.7%[46.1 µM] | .
CCSc1nc(-c2ccccc2)nc(C(Cl)Cl)n1 | -1.7% | -3.0% | 3.7% | -17.1% | 2.3% | -3.2% | . | .
Cc1nc2c(C(=O)N3CCN(C)CC3)cnn2c(C)c1Cc1ccc(Cl)cc1 | -4.7% | 1.0% | -10.7% | 6.9% | -1.0% | -4.3% | -0.6% | 6.4%
Cc1cc(Cl)n2nc(C)c(-c3ccc(Cl)cc3)c2n1 | . | . | 1.3% | ? | -5.4% | . | ? | 15.8µM*
COc1ccccc1N(CC(=O)NCCC1=CCCCC1)S(=O)(=O)c1ccccc1 | -5.9% | . | -9.9% | 1.5% | -1.0% | . | ? | -26.0%[46.1 µM]
Cc1ccc(C)c(NC(=O)c2cc[n+](C)cc2)c1 | -11.8% | . | 2.1% | -20.7% | -1.7% | . | 4.9% | ?
O=C(CSc1ccc(F)cc1)Nc1nnc(-c2ccco2)o1 | . | . | 22.0% | 3.2% | -4.0% | . | 4.8%[46.1 µM] | -1.4%
O=C(CCC1COc2ccccc2O1)N1CCCC1 (stereo not drawn) | -3.9% | 1.2% | -5.7% | 18.2% | -7.4% | 4.3% | 14.7% | 14.8%
O=C(Nc1ccc(S(=O)(=O)Nc2nccs2)cc1)c1nn(-c2ccc(F)cc2)ccc1=O | 16.4% | . | 21.2% | 8.0% | -3.8% | . | . | .
Cc1ccc(NC(=O)Cn2c(-c3ccc4c(c3)OCO4)cn(-c3ccccc3)c2=O)cc1 | . | -5.8% | . | 25.5% | . | ? | ? | -4.3%[46.1 µM]
COc1cc(/C=N/NC(=O)C(=O)NCc2ccco2)cc(Cl)c1O | -7.5% | . | 15.6% | -19.6% | 0.0% | . | -9.3% | .
CCCC(C)n1[nH]c(=O)c2c1NC(=O)CSC2c1ccccc1 (stereo not drawn) | -0.5% | . | -3.0% | -6.9% | 0.5% | . | 9.2%[46.1 µM] | 7.9%
O=C(N/N=C/C=C/c1ccco1)c1cccc([N+](=O)[O-])c1 | 5.8% | -4.3% | 2.5% | -15.7% | -7.4% | ? | -16.1% | -2.7%
COc1ccccc1Nc1nc(N)nc(CSC(=S)N2CCC(C)CC2)n1 | ? | -5.2% | 11.3% | 5.6% | 15.8µM* | -7.1% | ? | -1.6%
Cc1ccc(-c2nc(-c3ccccc3)no2)c(Cl)c1 | -12.6% | -6.4% | -8.5% | -37.9% | -5.2% | -5.8% | . | .
COc1ccc(Br)cc1/C=N/NC(=O)CNC(=O)/C=C/c1ccccc1 | -8.2% | -4.4% | 7.9% | -22.1% | -1.4% | ? | ? | -22.6%
Cc1cccc(C(=O)N2CCN(S(=O)(=O)N3CCCCCC3)CC2)c1 | -1.3% | . | 30.4% | -19.2% | 1.4% | . | 3.8%[46.1 µM] | 2.7%
O=C(CN1CCN(S(=O)(=O)/C=C/c2ccccc2)CC1)NCC(F)(F)F | 12.5% | . | -0.1% | -3.1% | 2.7% | . | -10.5%[46.1 µM] | .
O=C(CCC(=O)OCC(=O)c1ccccc1)NC1CCCCC1 | 2.1% | 0.7% | 1.6% | 15.2% | -0.4% | 11.2% | 7.1% | -0.3%
COc1ccc(/C=C2/C(=O)N(c3ccccc3)N=C2C)cc1Br | 4.9% | . | -14.4% | -16.9% | 2.5% | . | 1.8%[46.1 µM] | 0.2%[46.1 µM]
Cc1cc(=O)[nH]c(SCC(=O)N2CCN(S(=O)(=O)c3ccccc3)C2)n1 | . | . | 10.2% | 6.1% | -3.7% | . | 12.8%[46.1 µM] | -5.9%[46.1 µM]
O=[N+]([O-])c1ccc(Sc2cccc[n+]2[O-])c2nonc12 | -66.1% | . | 10µM* | 6.31µM* | -6.8% | . | ? | ?
O=C(c1ccc(F)cc1)N1CCN(c2ccc([N+](=O)[O-])cc2-n2cccc2)CC1 | 7.3% | . | 16.1% | ? | -4.2% | . | ? | ?
COc1ccccc1NC(=O)c1ccc2nsnc2c1 | -6.9% | . | -21.1% | 21.4% | -1.6% | . | -7.5%[46.1 µM] | -0.4%
CC1Sc2ccc(S(=O)(=O)CCC(=O)Nc3ccc(C(C)C)cc3)cc2NC1=O (stereo not drawn) | 3.7% | . | 14.3% | ? | 3.3% | . | . | .
N#CC1=C(N)Oc2c(oc(CO)cc2=O)C1c1cccs1 (stereo not drawn) | 0.1% | 0.2% | 8.6% | 1.9% | 1.0% | -8.9% | 0.1% | -2.2%
CCN(CC)CCN1C(=O)C2C(C(=O)Nc3ccc(C(C)C)cc3)C3C=CC2(O3)C1C(=O)NC1CCCCC1 (stereo not drawn) | -17.5% | . | 11.6% | -11.2% | 1.0% | . | ? | .
Cc1cccc(NCc2nc(SCC(=O)Nc3ccccc3Br)n[nH]2)c1 | -37.6% | . | 14.7% | -8.5% | -0.8% | . | . | .
Cc1ccc2c(c1)CC1(CN2C)C(=O)OC(C)(C)OC1=O | 7.9% | 6.7% | -11.0% | -10.0% | -0.9% | 8.3% | -14.6% | 1.3%
Cc1cc(C)n2nc(SC(C)C(=O)Nc3ccccc3F)nc2n1 (stereo not drawn) | . | . | 7.4% | -11.7% | 0.7% | . | ? | ?
COc1ccc(OCC(=O)NNC(=O)C(=O)N2CCCC2)cc1 | 2.9% | -1.1% | -1.5% | -10.7% | -11.2% | 12.7% | ? | ?
COc1ccc(-c2cc(C(=O)Nc3cc(C)ccc3O)no2)cc1OC | . | -3.0% | . | -11.4% | . | ? | ? | -20.6%[46.1 µM]
CC(=O)N1CCN(S(=O)(=O)c2c(F)cc(F)c(Cl)c2F)CC1 | . | . | -1.5% | 0.0% | 0.1% | . | ? | -11.0%
CCOC(=O)CNC(=O)c1cn(CC)c(=O)c2cc(OC)c(OC)cc12 | -3.2% | 2.0% | -5.3% | 13.8% | 0.8% | -0.9% | 18.9% | -1.4%
O=C(NCCc1cccc(Cl)c1)c1cc2ccccc2oc1=O | -1.2% | . | 5.2% | 12.2% | 0.9% | . | 4.7% | ?
Cc1ccc(S/C=C\C(=O)c2ccccc2)cc1 | -3.8% | -4.9% | 6.6% | 14.8% | 7.7% | -10.1% | ? | -10.5%
O=C(COc1nc2ccccc2nc1N1CCOCC1)N1CCc2ccccc21 | 2.2% | 2.8% | -8.4% | ? | 2.2% | 6.7% | -16.1% | 16.5%
CCOc1ccc2nc(NC(=O)c3nc(SC)ncc3Cl)sc2c1 | . | -0.9% | . | -21.3% | . | 1.8% | 4.7%[46.1 µM] | 11.8%[46.1 µM]
O=C(COC(=O)c1ccccc1F)NNC(=O)c1ccccc1 | . | . | 4.3% | 4.6% | -3.3% | . | -1.1% | ?
CN(C)c1ccc(/C=C(/C#N)C(=O)NCc2ccccc2)o1 | 12.7% | -8.1% | -6.1% | 47.1%[activator] | -1.7% | -2.1% | -5.7% | 5.4%
NC(=O)c1ccc(C(F)(F)F)n(Cc2ccc(Cl)cc2)c1=O | -2.2% | -11.1% | 6.9% | ? | 1.9% | 8.3% | ? | -6.0%
c1csc(C2Nc3ccccc3-c3nc4ccccc4n32)c1 (stereo not drawn) | -48.5% | -7.8% | 1.3% | 10.1% | -18.2% | -0.8% | ? | -18.5%
COc1cccc(-c2nc(-c3ccccc3)c(-c3ccccc3)[nH]2)c1OCC(=O)O | ? | . | 4.4% | -14.5% | 6.1% | . | . | .

Rewritten as labelled records: entries from further up.
Cc1ccc2c(c1)CC1(CN2C)C(=O)OC(C)(C)OC1=O
  NS1 function inh = 7.9%	Cruzain inh Det = 6.7%	RE007 growth inh = -11.0%	2A StopGo = -10.0%	SARS PLpro yeast = -0.9%	Cruzain noTriton = 8.3%	Marburg entry inh = -14.6%	LASV entry inh = 1.3%
Cc1cc(C)n2nc(SC(C)C(=O)Nc3ccccc3F)nc2n1 (stereo not drawn)
  NS1 function inh = .	Cruzain inh Det = .	RE007 growth inh = 7.4%	2A StopGo = -11.7%	SARS PLpro yeast = 0.7%	Cruzain noTriton = .	Marburg entry inh = ?	LASV entry inh = ?
COc1ccc(OCC(=O)NNC(=O)C(=O)N2CCCC2)cc1
  NS1 function inh = 2.9%	Cruzain inh Det = -1.1%	RE007 growth inh = -1.5%	2A StopGo = -10.7%	SARS PLpro yeast = -11.2%	Cruzain noTriton = 12.7%	Marburg entry inh = ?	LASV entry inh = ?
COc1ccc(-c2cc(C(=O)Nc3cc(C)ccc3O)no2)cc1OC
  NS1 function inh = .	Cruzain inh Det = -3.0%	RE007 growth inh = .	2A StopGo = -11.4%	SARS PLpro yeast = .	Cruzain noTriton = ?	Marburg entry inh = ?	LASV entry inh = -20.6%[46.1 µM]

An unsorted share of the library; 4.6% or so of the library scored in one or more.
